VDR inhibitor: Inhibitors of the vitamin D receptor (VDR): qHTS; Vitamin D3 receptor (Homo sapiens), P11473; VDR-SRC2-3 peptide fluorescence polarization, 2 h; Potency, µM, for inactives: max response, negative = inhibition, most hits filed as inhibitors; 400,000 compounds, 0.93% hits; AID 504847, 2011; active means well fitted inhibition curve with a large enough effect; inconclusive means small, poorly fitted or top-dose-only effect, or another doubt; inactive means no such curve, though single readings can be large or run the other way; further: series mostly up to about 120 µM
Target sequence (P11473 whole entry, looked up): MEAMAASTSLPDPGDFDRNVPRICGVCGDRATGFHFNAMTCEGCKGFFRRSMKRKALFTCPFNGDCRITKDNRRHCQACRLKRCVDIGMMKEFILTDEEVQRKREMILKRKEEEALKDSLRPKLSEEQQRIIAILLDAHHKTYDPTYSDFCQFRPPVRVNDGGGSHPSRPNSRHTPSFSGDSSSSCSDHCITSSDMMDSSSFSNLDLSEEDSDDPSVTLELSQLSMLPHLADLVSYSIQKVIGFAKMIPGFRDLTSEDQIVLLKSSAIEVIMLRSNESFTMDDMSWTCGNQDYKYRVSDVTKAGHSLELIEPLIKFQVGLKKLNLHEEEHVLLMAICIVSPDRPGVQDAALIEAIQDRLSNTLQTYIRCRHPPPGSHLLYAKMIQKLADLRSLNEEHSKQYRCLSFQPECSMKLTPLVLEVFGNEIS
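The screen uses fluorescence polarization to detect compounds that interfere with recruitment of the SRC2-3 coactivator peptide to VDR; plates are read after 2 h at room temperature.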
* = called active by the depositor; ? = inconclusive. On the % scale 0 is the no-effect control and ±100 the full control effect; potency means the concentration at half of the fitted maximal effect. An excerpt (hit frequency here may not be typical).

molecule	VDR inhibitor
CCc1nnc(NC(=O)CSc2nc3c(C)cccc3[nH]2)s1	-17%
COc1ccc(C2C(C(=O)Nc3ccccc3)=C(C)Nc3nc(-c4ccccc4Cl)nn32)cc1OC (stereo not drawn)	-11%
CC(=O)c1cn(C)c(=O)c2ccccc12	-16%
O=C(N/C(=C/c1cccs1)C(=O)N1CCCC1)c1ccccc1	-4%
CN1CCN(CC2(O)CCN(S(=O)(=O)c3ccc(Cl)cc3)CC2)CC1	-14%
O=C1C2CCCN2C(c2ccco2)N1c1ccc(F)cc1 (stereo not drawn)	-6%
CC1(C)OC(=O)C(=CNC(CCC(N)=O)C(=O)O)C(=O)O1 (stereo not drawn)	-2%
Brc1ccc(Oc2nnnn2-c2ccccc2)cc1	-7%
CCOC(=O)Cc1csc(NC(=O)CSc2nnc(-n3nc(C)cc3C)c3ccccc23)n1	-19%
O=C(CC1N=C2c3ccccc3N=C(SCc3ccccc3Cl)N2C1=O)NCCc1ccccc1 (stereo not drawn)	9%
O=C(NC(=S)Nc1ccccc1N1CCCC1)c1ccc(-c2cccc([N+](=O)[O-])c2)o1	-15%
Cc1ccc(C)c(NC(=S)N2CCC(c3nc4ccccc4s3)CC2)c1	-6%
CCC(=O)c1cn(CC(=O)Nc2cccc(C)c2)c2ccccc12	-1%
O=C(CCN1C(=O)/C(=C/c2ccccc2F)SC1=S)NCCCn1ccnc1	-8%
COc1ccc(NC(=O)c2cnc3ccccn3c2=O)c(OC)c1	12%

The closing three records of the section before open the next one:
molecule	VDR inhibitor
CCC(=O)c1cn(CC(=O)Nc2cccc(C)c2)c2ccccc12	-1%
O=C(CCN1C(=O)/C(=C/c2ccccc2F)SC1=S)NCCCn1ccnc1	-8%
COc1ccc(NC(=O)c2cnc3ccccn3c2=O)c(OC)c1	12%
Cc1cc(NS(=O)(=O)c2ccc3nc(-c4ccccc4)[nH]c3c2)ccc1Br	6%
COCC(=O)N1CCC(Oc2ccc(C(=O)NC(C)c3csc(C)n3)cc2)CC1 (stereo not drawn)	1%
CCOC(=O)C(NC(C)=O)(Nc1ccc(S(N)(=O)=O)cc1)C(F)(F)F (stereo not drawn)	7%
COc1nc(NCC(C)C)nc(Oc2ccc(=O)n(-c3ccccc3)n2)n1	7%
COC(=O)c1cc2sc(C)cc2n1Cc1ccc(F)cc1Cl	1%
Cc1nn(CC(=O)Nc2ccc(C(=O)N3CCCC3)cc2)c(=O)c2ccccc12	-15%
S=c1nc(-c2ccccc2Br)[nH][nH]1	-2%
CCC1CN(C(=O)N2CCC(C(=O)NCCc3ccccc3Cl)CC2)c2cc(C)ccc2O1 (stereo not drawn)	6%
CCOc1ccc(C(=O)Nc2ccc(NC(=O)c3cccs3)cc2)cc1[N+](=O)[O-]	-16%
C=CCNc1oc(Cc2cccc3ccccc23)nc1C#N	5%
COc1ccccc1CN1CCNC(=O)C1CC(=O)N(C)CC1CCOCC1 (stereo not drawn)	-6%
CC(C)c1c(C(=O)N/N=C/c2ccsc2)nnn1-c1nonc1N	-22%
CCOC(=O)c1ccc(NC(=O)c2csc3c2CCCC3)cc1	-8%
O=C(NCc1ccccc1)c1onc(CSc2ccc(F)c(F)c2)c1C(=O)NCc1ccccc1	-11%
CCc1cccc(C)c1Nc1c(-c2ccsc2)nc2ncccn12	-6%
Cn1c(S(=O)(=O)Cc2ccc(Cl)cc2)nc2ccccc21	17%
OC(COc1ccc2ccccc2c1Br)Cn1ccnc1 (stereo not drawn)	2%
CC(C)C(C(=O)O)N1C(=O)/C(=C/C=C/c2ccco2)SC1=S (stereo not drawn)	-31%
Fc1cccc(/C=C2\CCCC3=C2NC(=S)NC3c2cccc(F)c2)c1 (stereo not drawn)	79µM*
CNC1=C([N+](=O)[O-])CC([N+](=O)[O-])=C(N2CCNCC2)N1C	10%
Cc1cc2cc(CNC(=O)c3ccc(Br)o3)ccc2[nH]1	-13%
Cc1cccc(NC(=S)NNC(=O)c2cccc([N+](=O)[O-])c2)c1	17%
CC(C)(C)n1cnc2cc(NC(=O)c3ccccc3)ccc21	-1%
COc1ccc(CCNC2CCC(c3ccccc3)CC2)cc1 (stereo not drawn)	2%
CCC1(CC)C(C#N)C(=O)NC(=O)C1C#N (stereo not drawn)	15%
COc1ccc(C(=O)CN2C(=O)NC3(CCCCCC3)C2=O)c(OC)c1	-16%
Cc1ccc(NS(=O)(=O)c2ccc(C(=O)Nc3nncs3)cc2)cc1	-1%
Cc1nnc(NC(=O)c2ccc3nccnc3c2)s1	-6%
O=C(NCc1ccc(F)cc1)c1ccc2c(c1)nc1n2CCCCC1	12%
O=C(CN1CCc2ccccc2C1)Nc1ccc(F)cc1	18%
Cc1cc(C)[n+]2[nH]c(N)c(N=Nc3ccccc3)c2n1	-1%
Cc1ccc(NC(=O)C(=Cc2ccc(C(=O)O)cc2)C(=O)Nc2ccc(C)cc2C)c(C)c1	25µM*
O=C(O)C1CCN(c2ccc(S(=O)(=O)N3CCCCC3)cc2[N+](=O)[O-])CC1	1%
COc1cc(C)c(C(C)C)cc1S(=O)(=O)NC1CC(C)(C)NC(C)(C)C1	4%
Cc1ccc(S(=O)(=O)N(CC(O)CN2CCCC2)c2ccccc2)cc1 (stereo not drawn)	-4%
CCCSc1nc2sc3c(c2c(=O)n1Cc1ccccc1)CC(C)(CC)OC3 (stereo not drawn)	-12%
CCCCN(CCCNC(=O)c1ccc(Sc2ccc(Cl)cc2)c(NC(C)=O)c1)c1ccccc1	4%
Cc1ccc(NC(=S)N2CCN(CCN3C(=O)c4cccc5cccc(c45)C3=O)CC2)cc1	-22%
O=C(/C=C/c1cccc(Br)c1)Nc1nn[nH]n1	-10%
CC(=O)N1CCc2cc(S(=O)(=O)CCC(=O)N3CCN(c4ccccc4)CC3)ccc21	7%
CCOc1ccc(N2C(=O)CN(C)C2=S)cc1	-8%
COc1cccc(CN(C)C(=O)c2ccc(C)c(S(=O)(=O)N3CCCCC3)c2)c1	-13%
CCOc1ccc2c(c1)c(=O)c(C(=O)c1ccc(CC)cc1)cn2CC(=O)Nc1ccc2c(c1)OCCO2	-16%
Cc1ccc2c(c1)C(=O)OC1(O)C3C4C=CC(C4)C3C(=O)N21 (stereo not drawn)	-4%
O=C(COc1ccccc1F)N1CCCc2ccccc21	4%

Six entries picked at random from the list so far, as already listed:
molecule	VDR inhibitor
Cc1cc(C)[n+]2[nH]c(N)c(N=Nc3ccccc3)c2n1	-1%
Cc1ccc(NC(=S)N2CCN(CCN3C(=O)c4cccc5cccc(c45)C3=O)CC2)cc1	-22%
CCCCN(CCCNC(=O)c1ccc(Sc2ccc(Cl)cc2)c(NC(C)=O)c1)c1ccccc1	4%
CCOc1ccc2c(c1)c(=O)c(C(=O)c1ccc(CC)cc1)cn2CC(=O)Nc1ccc2c(c1)OCCO2	-16%
CC(=O)N1CCc2cc(S(=O)(=O)CCC(=O)N3CCN(c4ccccc4)CC3)ccc21	7%
COc1cc(C)c(C(C)C)cc1S(=O)(=O)NC1CC(C)(C)NC(C)(C)C1	4%

Other results follow.
molecule	VDR inhibitor
O=C(O)C1CC(c2ccc(F)cc2)=NO1 (stereo not drawn)	10%
CCOC(=O)C1(Cc2ccccc2)CCCN(Cc2ccc(OCCO)cc2)C1 (stereo not drawn)	-9%
CC(=O)c1cccc(NC(=O)NC(C)C2CCCO2)c1 (stereo not drawn)	1%
CN(C)/C=C/C(=O)c1cnc2n(c1=O)CCS2	2%
Cc1ccc(Cl)cc1NC(=O)C(C)n1nc(-c2ccccc2)ccc1=O (stereo not drawn)	-13%
CCOc1ccc(Cl)cc1S(=O)(=O)N1CCC(C(=O)NCc2ccncc2)CC1	8%
O=C1CCC/C=C\C[C@@H](CC(=O)N(CCO)Cc2ccccc2)C(=O)N2CCC[C@H]2CO1	-7%
CC(=O)N1CCCc2cc(S(=O)(=O)Nc3ccc4c(c3)OCO4)ccc21	0%
CC(C)c1nnc(NC(=O)CCS(=O)(=O)c2nc(-c3cccs3)cc(C(F)(F)F)n2)s1	22µM*
NS(=O)(=O)c1ccc2nc(NC(=O)C3=COCCO3)sc2c1	7%
O=C(NC1CCCC1)C1CCCN1C(=O)Nc1ccccc1Cl (stereo not drawn)	-8%
CCOc1ccc(C(=O)NCc2nc3cccnc3n2Cc2cccc(OC)c2)cc1	17%
O=C(O)c1nn(CCOc2ccccc2F)c(=O)c2ccccc12	14%
O=C(CN1CCCCCC1)Nc1cccc([N+](=O)[O-])c1	-11%
CCCn1c(=O)c2ccccc2n2c(SCCOc3ccccc3)nnc12	-19%
COc1ccc(CNC(=O)C(=O)NCC(c2ccco2)S(=O)(=O)c2cccs2)cc1 (stereo not drawn)	9%
Cc1cc(NCc2ccc(F)cc2Cl)n2nnnc2n1	16%
Cn1c(=O)c2ncn(CC(=O)N/N=C/c3ccco3)c2n(C)c1=O	-19%
Cc1cccc(C(=O)N2CCCCC2CCN2CCCCC2)c1 (stereo not drawn)	13%
Cc1cccc2cc3c(nc12)SC(=NCC1CCCO1)N(Cc1ccco1)C3 (stereo not drawn)	?
O=C(NCc1ccco1)Nc1ccc(Br)cc1	1%
COc1ccc(NC(=O)c2cccc(F)c2)cc1Cl	9%
COc1cc(Cl)c(C)cc1NC(=O)COC(=O)C1=COCCO1	2%
O=C(O)C1CCCCC1C(=O)NC(c1ccccc1)c1ccccc1 (stereo not drawn)	2%
Oc1ccccc1N=Cc1c(O)ccc2ccccc12	-16%
COc1cccc(C(=S)N2CCCC2)c1OC	?
CC1CCN(S(=O)(=O)c2nnc(NC(=O)c3ccc(C(C)C)cc3)s2)CC1	7%
O=C(Nc1nc2ccccc2[nH]1)NC1CCCCC1	5%
CCOc1ccc(CC(=O)N2CCN=C2SCc2ccc([N+](=O)[O-])cc2)cc1	15%
CC(=O)c1ccc(NC(=O)/C(=C\c2cccs2)NC(=O)c2ccco2)cc1	10%
Cc1ccc(Sc2ccc(N3CCCC(C(=O)Nc4ccc(F)c(Cl)c4)C3)nn2)cc1 (stereo not drawn)	-4%
CCOc1ccc(NC(=O)Cn2c(=O)c(CNc3ccc(OC)cc3)cc3ccc(OC)cc32)cc1	4%
Cc1cc(NC(=O)COC(=O)CNS(=O)(=O)c2c(F)cc(F)cc2Br)no1	0%
O=c1[nH]cnc2scc(-c3ccc(-c4ccccc4)cc3)c12	-5%
Cc1ccc(C)c(C(C)NC(=S)NCc2ccc(F)cc2)c1 (stereo not drawn)	2%
O/N=C1/C2C3CC4C5C3C1C5C1(OCCO1)C42 (stereo not drawn)	6%
COc1cccc(CCNC(=O)c2c(O)nc3cc(C)ccn3c2=O)c1	-13%
COc1ccc(OC)c(NC(=O)C2CCCN2C(=O)OCc2ccccc2)c1 (stereo not drawn)	0%
COc1ccc(S(=O)(=O)n2nc(C)cc2C)c(C)c1C	6%
O=C(NCc1ccc2c(c1)OCO2)c1cccc(Cl)c1	-11%
c1ccc2c(c1)c1ccccc1n1c(-c3ccc4c(c3)OCO4)nnc21	-13%
O=C(c1ccco1)N1CCC[C@@]2(CCN(c3ccccc3)C2)C1	45µM*
N#Cc1cccc(S(=O)(=O)NCC(=O)OCC(=O)NCc2ccccc2)c1	-16%
CC(C)(C)C(=O)Nc1cc(C(F)(F)F)ccc1N1CCOCC1	-7%
Cc1ccc(Cl)cc1NC(=O)Cn1cccc1	18%
Cc1ccc(S(=O)(=O)N(C)C)cc1NC(=O)c1n[nH]c(=O)c2ccccc12	-14%
Cc1ccccc1CNC(=O)C1CCN(c2nnc(-n3c(C)ccc3C)s2)CC1	1%
Cc1ccc(Nc2nnc(SCC(=O)c3ccc(Br)s3)s2)c(C)c1	0%
CCN(CC)C(=O)c1cncc(C(=O)N(CC)CC)c1-c1ccccc1	-1%
COc1ccc(CN(C(=O)c2snc(C(N)=O)c2N)C(C(=O)NC2CCCC2)c2ccc(OC)c(OC)c2)cc1 (stereo not drawn)	1%
O=C(COC(=O)CCc1c[nH]c2ccccc12)NC1CCS(=O)(=O)C1 (stereo not drawn)	-7%
CCOC(=O)c1c(-c2ccccc2Cl)csc1NC(=O)c1cc(S(=O)(=O)N2CCOCC2)ccc1C	-13%
CCS(=O)(=O)n1nc(-c2ccc(Cl)cc2)nc1SCc1ccccc1	-20%
CS(=O)(=O)Nc1ccc(C(=O)Nc2ccccc2Cl)cc1	17%
CCCOc1ccc(Cc2nn3c(=O)/c(=C/c4ccco4)sc3nc2=O)cc1	-7%
CCOC(=O)c1c(C)n(-c2ccccc2)c2ccc(OC(=O)c3cc(OC)cc(OC)c3)cc12	-7%
Cc1ccc2c(=O)cc(CSc3ncn[nH]3)[nH]c2c1C	14%
CC(=O)Nc1cccc(C(=O)OCC(=O)c2ccc3c(c2)OCO3)c1	-9%
NC(=S)C1COc2ccccc2O1 (stereo not drawn)	4%
CC(C)(CO)Nc1ccc([N+](=O)[O-])cc1[N+](=O)[O-]	17%

The listing continues:
molecule	VDR inhibitor
CC(C)Oc1ccc(C(=O)NC(=S)Nc2ccc(Cl)c(C(=O)O)c2)cc1	15%
CCOC(=O)N1CCC(NC(=O)CCC(=O)N2CC(C)Oc3ccc(C)cc32)CC1 (stereo not drawn)	-2%
COc1cc(/C=N/NC(=O)c2ccoc2C)ccc1OCCN1CCCCC1	2%
COc1ccc2c(c1)N(C)/C(=C/c1cccc[n+]1C)S2	13%
COc1ccc(-n2cc(C(=O)NC(C)c3ccccc3)c3ccccc3c2=O)cc1 (stereo not drawn)	7%
